UCH37 inh: inhibitors of human deubiquitinating enzyme UCH37; AID 588478; 0.33% of 330,000 active; Q9Y5K5; inhibition, % (test concentration not listed); purified proteasome/UCH37, Ub-AMC cleavage fluorescence;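 active = mean of two replicates above 20%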;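 note: 0% = compound-free wells with enzyme and 100% = wells lacking proteasome; stock transfer was 100 nL into about 20 µL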
Target sequence (Q9Y5K5 whole entry, looked up): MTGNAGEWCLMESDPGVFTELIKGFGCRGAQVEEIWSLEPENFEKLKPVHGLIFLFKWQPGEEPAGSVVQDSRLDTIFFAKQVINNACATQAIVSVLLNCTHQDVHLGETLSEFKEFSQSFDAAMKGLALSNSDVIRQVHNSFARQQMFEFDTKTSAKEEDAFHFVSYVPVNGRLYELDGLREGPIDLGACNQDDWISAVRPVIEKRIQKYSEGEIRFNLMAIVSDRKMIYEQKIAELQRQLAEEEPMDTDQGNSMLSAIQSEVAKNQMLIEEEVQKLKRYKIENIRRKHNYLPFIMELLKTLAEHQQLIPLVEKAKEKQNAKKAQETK
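Material: Human UCH37 enzyme supplied as purified proteasome complex | Schedule: 30 min compound-proteasome preincubation then 25 min substrate reaction, room temperature | Detection: AMC fluorescence from Ub-AMC cleavage, excitation 355 nm, emission 460 nm | Benchmarks: Wells without proteasome as full block, compound-free enzyme plus substrate as uninhibited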
Ecoli growth: E. coli growth inhibition. Escherichia coli growth, OD600, 23 h; hits give low values. OD600 absorbance (test concentration not listed). 0.21% of 330,000 active;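 active = OD600 absorbance below the run mean of sample wells minus 3.6 SD, in any replicate, cut at about 0.56 in these data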;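 note: stock transfer was 300 nL into about 60 µL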
rRNA inh HTS: inhibitors of bacterial rRNA selective over humanized ribosomes; 1.6% of 350,000 active; GFP signal change (wild-type ribosome), % (no concentration beside the values); E. coli WT GFP vs humanized-ribosome RFP mutants, fluorescence, 24 h; hits give low values; DMSO median 0, no signal -100;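 active = significant combined selectivity score with lowered wild-type GFP, culture density cut under 30%, mutant RFP and density less affected; inactive = any of these conditions unmet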; note: one replicate is shown; some compounds called inactive have numbers as strong as hits
ALR H2O2 inh: inhibitors of human sulfhydryl oxidase ALR; purified ALR, DTT oxidation, H2O2 HRP-luminol luminescence; P55789; inhibition, % (test concentration not listed); 3.8% of 290,000 active; AID 485317;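 active = mean and each replicate at 75% or more; inconclusive = only one of the two met; inactive = neither met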;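 note: stock transfer was 7.5 nL into about 7.5 µL; 0% = neutral wells and 100% = wells with inactivated enzyme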
Target sequence (P55789 whole entry, looked up): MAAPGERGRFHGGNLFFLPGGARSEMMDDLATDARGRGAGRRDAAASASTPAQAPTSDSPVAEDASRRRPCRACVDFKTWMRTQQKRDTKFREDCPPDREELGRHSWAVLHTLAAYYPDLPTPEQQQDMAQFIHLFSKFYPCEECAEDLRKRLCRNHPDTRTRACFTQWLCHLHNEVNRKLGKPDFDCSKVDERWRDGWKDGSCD
B2AR ag: activates human beta-2 adrenergic receptor causing internalization. 0.43% of 340,000 active. Am2.2-beta2AR cells, FAP receptor internalization, flow cytometry; reference of the scale not given here. response, % (no concentration beside the values). AID 504454;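 active = response above a set limit, near 3 SD of response in nonfluorescent compounds, cut at about 42% in these data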;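 note: stock transfer was 100 nL into about 11 µL; a reference agonist was the positive control; negative values mostly stem from fluorescent compounds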
Target sequence (P07550 whole entry, looked up): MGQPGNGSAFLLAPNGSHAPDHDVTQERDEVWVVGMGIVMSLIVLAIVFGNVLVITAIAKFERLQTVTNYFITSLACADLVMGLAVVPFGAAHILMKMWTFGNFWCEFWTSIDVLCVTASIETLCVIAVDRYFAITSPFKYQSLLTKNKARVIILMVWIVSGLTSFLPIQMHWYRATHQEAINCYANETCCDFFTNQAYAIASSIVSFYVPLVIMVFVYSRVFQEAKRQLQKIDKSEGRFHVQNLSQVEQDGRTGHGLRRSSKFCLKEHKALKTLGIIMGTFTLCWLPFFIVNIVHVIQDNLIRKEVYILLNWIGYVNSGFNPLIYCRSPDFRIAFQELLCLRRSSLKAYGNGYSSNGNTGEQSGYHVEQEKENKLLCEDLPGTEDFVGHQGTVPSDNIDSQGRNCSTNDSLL
HNF4A DNA FP: change in binding of human HNF4 alpha to DNA; activity change, % at 10 µM; HNF4a-FITC DNA binding, fluorescence polarization, 1 h; 0.3% of 360,000 active; in the data active = activity change above about 30%, passing the limit was not always enough;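 note: controls were the assay level and a saturating level of protein; the project sought stronger binding though the title names inhibitors; some compounds called inactive have numbers as strong as hits; positive values seem to mean higher polarization but the record does not say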
FGF22 binding: FGF22 (human) thermal shift binding; 1.5% of 340,000 active; recombinant FGF22 thermal shift, SYPRO orange fluorescence; percent of sucrose octasulfate shift, DMSO zero; calls only at 9.99 µM; Q9HCT0;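 active = melting point raised past a set limit in the mean and every replicate; inconclusive = no clear call; three in four hits are not shown here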
rRNA inh HTS OD600: recorded beside rRNA inh HTS, whose call it bears; OD600 change, %; measured here: OD600 growth;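 optical density of the mix in the first replicate; 0 = DMSO median and -100 = no signal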
rRNA inh HTS RFP: second read-out of rRNA inh HTS, no call of its own (marks repeat the call); RFP signal change, %; measured here: RFP humanized mutant strains;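 first replicate; 0 = DMSO median and -100 = no signal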
* hit, by the source's call; i = inactive; ? = inconclusive; . = not tested or not shown; & = joins results of further samples. These rows are one share of the data; count on the stated rates, not on these rows.

cpd	mol	UCH37 inh	Ecoli growth	rRNA inh HTS	rRNA inh HTS OD600	rRNA inh HTS RFP
1	CC(=O)N1Cc2cnnn2-c2ccccc2C1(C#N)Cc1ccccc1 (centres undefined)	.	.	-4.4	7.1	-5.6
2	COC(=O)C1=C(c2cc3ccccc3o2)C[C@@H]2CC[C@H]1N2C(=O)NCc1ccccc1	-2.4	.	-30.8	-49.4	-1.1
3	O=C(Nc1cccc(OC(=O)N2CCCCC2)c1)N1CCCCC1	0.7	0.699	.	.	.
4	Oc1cc(O)cc(/C=C/c2ccc(O)cc2O)c1	-10.6	.	.	.	.
5	CC(C)=CCOc1c2occc2cc2ccc(=O)oc12	5.3	0.665	-7.2	-7.3	-9.6
6	COC(=O)C1=C(c2ccc(C(C)=O)cc2)C[C@@H]2CC[C@H]1N2C(=O)N1CCC(C)CC1	2.9	.	1.2	-2.7	1.6
7	CCC1(CCC(C)C)C(=O)NC(=S)NC1=O	-1.2	0.683	0.1	-7.6	0.0
8	O=C(OC1CCN(CCCl)CC1)C(c1ccccc1)c1ccccc1	0.3	0.705	.	.	.
9	CC(Cc1ccccc1)NCC(=O)Nc1cc(N(C)C)nc2ccccc12 (centres undefined)	-65.1	0.629	-9.6	-4.9	0.6
10	c1ccc2sc(C3CCCNC3)nc2c1 (centres undefined)	1.4	0.684	.	.	.
11	c1ccc2sc(C3CCNCC3)nc2c1	2.9	0.662	7.8	2.7	4.2
12	COc1cc(/C=C2\C(=O)NC(=O)N(c3ccccc3)C2=O)c([N+](=O)[O-])cc1OC	6.9	0.726	16.2	10.4	-1.5

cpd	ALR H2O2 inh	B2AR ag	HNF4A DNA FP	FGF22 binding
1	.	8.2	-7.1	i
2	1.7	-9.4	2.8	i
3	-5.3	2.1	-0.7	.
4	?	6.8	4.5	.
5	-3.6	-9.9	3.1	i
6	-12.5	1.0	0.3	i
7	.	1.2	2.7	i
8	-4.7	8.5	0.9	i
9	5.2	9.5	-0.1	i
10	-13.8	5.6	-0.7	.
11	-6.8	-4.7	1.3	i
12	.	0.8	-3.6	i

Remaining list, next part
cpd	mol	UCH37 inh	Ecoli growth	rRNA inh HTS	rRNA inh HTS OD600	rRNA inh HTS RFP
13	COCCCNC(=O)c1c(NC(=O)c2ccccc2)n(Cc2ccccc2)c2nc3ccccc3nc12	-218.7	0.678	.	.	.
14	CC(=O)c1c(C)n(Cc2ccccc2)c2ccc(O)cc12	2.2	0.688	-2.0	-9.3	13.3
15	COc1ccccc1N1C(=O)NC(=O)/C(=C/c2ccc3c4c(cccc24)CC3)C1=O	-89.0	0.695	.	.	.
16	O=C(Cc1ccccc1)Oc1ccc([N+](=O)[O-])cc1	10.8	0.654	-16.7	-21.2	-6.4
17	CCOP(=O)(Cc1ccc(C#N)o1)OCC	0.3	0.645	21.6	19.5	0.5
18	CCC(=NCc1cccnc1)c1c(O)n(Cc2ccccc2)c(=O)[nH]c1=O	3.3	0.672	.	.	.
19	Cc1cc(OC(C)C(=O)NCC2CCC(C(=O)O)CC2)c2c3c(c(=O)oc2c1)CCC3 (centres undefined)	-290.3	0.676	13.6	10.0	0.5
20	Nc1cncc(C(=O)O)c1	-6.9&-3.1	0.668&0.705	84.2&17.9	5.7&15.8	18.2&4.8
21	CCC(c1nnnn1-c1ccc2c(c1)OCCO2)N1CCC(n2c(=O)[nH]c3ccccc32)CC1 (centres undefined)	.	.	-11.8	-20.0	4.9
22	CC1NC(=O)NC(=O)C1Br (centres undefined)	-2.4	0.711	17.8	16.9	2.4
23	CN1CCN(c2nc(N)c(Br)c(Cl)n2)CC1	3.4	0.618	3.5	6.5	1.2
24	COc1ccc(C(O)P(=O)(OC(C)C)OC(C)C)cc1 (centres undefined)	2.0	0.629	.	.	.

cpd	ALR H2O2 inh	B2AR ag	HNF4A DNA FP	FGF22 binding
13	-25.5	6.3	4.5	.
14	.	1.5	4.7	i
15	-12.1	6.8	0.7	.
16	.	1.0	-1.2	i
17	1.0	-5.4	2.6	i
18	7.7	-13.6	16.1	.
19	-2.3	-0.3	0.5	i
20	-9.3	1.7&-6.0	3.0&-4.7	i
21	.	.	7.9	i
22	.	-3.6	-1.3	i
23	0.0	-36.5	-0.2	i
24	-12.0	1.5	-1.4	i

Continued.
cpd	mol	UCH37 inh	Ecoli growth	rRNA inh HTS	rRNA inh HTS OD600	rRNA inh HTS RFP
25	CC(=O)c1c(O)n(C2CCCCCC2)c(=O)[nH]c1=O	0.8	0.719	.	.	.
26	CSc1nnc([C@@H](N)Cc2ccccc2)o1	2.2	0.678	.	.	.
27	NC(=O)CN1CCCC1=O	1.1	0.663	-6.2	-5.7	2.8
28	O=c1[nH]c(O)c(N=Nc2cc([N+](=O)[O-])ccc2O)c(=O)[nH]1	22.7*	0.693	3.1	25.1	2.5
29	C[C@H](O)[C@H]1CC[C@H]2[C@@H]3CCC4=CC(=O)CC[C@]4(C)[C@H]3CC[C@]12C	0.0	.	-30.2	-51.5	-3.1
30	COc1ccc2c(c1)[C@@]13CCC=C[C@H]1[C@@H](C2)NCC3	.	.	0.6	-1.3	-2.5
31	CCCCCCOc1ccc(CN2CCN(CCO)CC2)cc1	-1.6	0.674	.	.	.
32	CC(C)C[C@@H]1COc2cc(N3CCN(C)CC3)ccc2S(=O)(=O)N1	.	.	11.3	21.5	-2.9
33	c1ccc(CNCCc2c[nH]c3ccccc23)cc1	3.1	0.673	10.5	5.4	-1.6
34	COc1ccccc1N1CCN(Cc2ccccc2Cl)CC1	3.8	0.684	.	.	.
35	O=c1c2ccccc2nc(/C=C/c2ccc(O)cc2)n1-c1cccc(O)c1	.	.	8.7	-4.8	6.0
36	C[C@H]1CCC[C@H](O)CCCCCc2cc(O)cc(O)c2C(=O)O1	2.4	.	.	.	.

cpd	ALR H2O2 inh	B2AR ag	HNF4A DNA FP	FGF22 binding
25	6.2	-15.0	8.8	.
26	-13.5	5.7	-2.8	.
27	4.9	2.7	-1.3	i
28	14.4	-2.3	1.0	i
29	1.2	-0.3	2.4	i
30	1.0	35.1	-3.8	i
31	-7.6	19.2	-0.6	.
32	.	.	-0.2	i
33	3.4	-2.2	1.2	i
34	.	3.0	1.9	.
35	-5.4	-0.5	9.1	i
36	39.0	14.6	0.6	i

Carrying on.
cpd	mol	UCH37 inh	Ecoli growth	rRNA inh HTS	rRNA inh HTS OD600	rRNA inh HTS RFP
37	Cc1cccc(-n2c(O)c(C=NCCN3CCNCC3)c(=O)[nH]c2=S)c1	1.6	0.684	14.3	12.6	3.1
38	CCC(=NC1CCN(Cc2ccccc2)CC1)c1c(O)[nH]c(=O)[nH]c1=O	0.8	0.708	.	.	.
39	COCCCNC(=O)c1c(NC(=O)c2ccco2)n(Cc2ccccc2)c2nc3ccccc3nc12	-102.4	0.704	.	.	.
40	CNc1cc(N2CCNCC2)ccc1[N+](=O)[O-]	8.6	0.658	1.0	0.5	-1.6
41	COc1cccc(C(=O)N2C[C@H]3C[C@@H](C2)c2cccc(=O)n2C3)c1	2.3	0.732	6.6	6.3	-0.2
42	COc1cc(CC2(CCc3ccncc3)C(=O)NC(=O)NC2=O)cc(OC)c1OC	3.7	0.689	3.0	12.1	-0.1
43	COC(=O)CCCC(NC(=S)N1CC2C[C@@H](C1)Cn1c2cccc1=O)C(=O)OC (some centres undefined)	-0.7	0.684	5.0	3.0	3.3
44	C[C@]12CCC3C(CC[C@H]4C[C@H](O)CC[C@]34C)C1C[C@H](O)[C@@H]2O (some centres undefined)	-0.3	0.635	.	.	.
45	COC(=O)C1=C(c2cccc(OCc3ccccc3)c2)C[C@@H]2CC[C@H]1N2C(=O)NCc1ccccc1OC	5.5	.	6.2	15.1	-1.3
46	CCOc1ccc(Br)c(C2(O)CC(C)N(C)CC2C)c1 (centres undefined)	1.1	0.771	.	.	.
47	Cc1cccc(-n2c(C)nc3ccc(Cl)cc3c2=O)c1	0.5	0.628	4.5	4.4	-0.8
48	Cc1ccc(OCC(=O)Nc2ccc(Cl)cc2C(=O)c2ccccc2)cc1	2.5	0.702	.	.	.

cpd	ALR H2O2 inh	B2AR ag	HNF4A DNA FP	FGF22 binding
37	-6.1	-1.8	17.0	i
38	6.7	-7.2	5.2	.
39	-34.9	1.5	0.7	.
40	-3.0	16.3	-1.8	i
41	-4.3	-8.9	2.7	i
42	0.4	2.5	1.6	i
43	-1.2	1.2	1.0	i
44	-2.0	14.2	20.6	i
45	17.0	-10.2	-1.4	i
46	-0.8	5.6	-2.1	.
47	2.5	2.2	-0.3	i
48	-17.3	-5.6	-2.9	.

The list goes on:
cpd	mol	UCH37 inh	Ecoli growth	rRNA inh HTS	rRNA inh HTS OD600	rRNA inh HTS RFP
49	CN1C(=O)CC(c2ccccc2)Nc2ccccc21 (centres undefined)	2.6	0.689	-6.1	5.0	4.1
50	CN1CCN(Cc2ccc(OC(F)(F)F)cc2)CC1	1.0	0.685	.	.	.
51	COc1ccc(NP(=O)(Oc2cccc(C)c2)Oc2cccc(C)c2)cc1OC	7.3	0.652	-18.5*	-10.8*	2.9*
52	C=CC1CN2CCC1CC2[C@@H](OC(=O)c1ccc(OC)cc1)c1ccnc2ccccc12 (some centres undefined)	0.0	0.629	-48.0	-40.4	-12.9
53	NC(=O)c1cc([N+](=O)[O-])cc([N+](=O)[O-])c1	.	.	.	.	.
54	CCCCCCn1c(O)c(C=NCCCn2ccnc2)c(=O)[nH]c1=O	-1.0	0.679	.	.	.
55	COc1ccccc1Oc1c(C)oc2cc(OC(=O)N(C)C)ccc2c1=O	0.7	0.725	1.4	1.0	-2.2
56	CC/C(=N\N1CCN(C)CC1)c1c(O)[nH]c(=O)[nH]c1=O	1.9	0.694	.	.	.
57	CC(=O)C1CCC2C3CCC4CC(O)CCC4(C)C3C(=O)CC12C (centres undefined)	1.8	0.686	-24.3	-40.8	-2.4
58	CNC(=O)c1cccn(Cc2cc(C(F)(F)F)cc(C(F)(F)F)c2)c1=O	-20.2	0.664	-11.8	-18.6	-5.5
59	O=c1[nH]c(=O)n(-c2cccc3ccccc23)c(O)c1C=NCc1ccc2c(c1)OCO2	5.7	0.715	.	.	.
60	CC1CCC(C(C)C)C(OC(=O)COC(=O)c2ccccc2N)C1 (centres undefined)	-219.2	0.697	.	.	.
61	CN1CC(C(=O)c2ccc(Cl)cc2)C(c2ccccc2)C1 (centres undefined)	3.0	0.605	-2.3	3.5	2.1

cpd	ALR H2O2 inh	B2AR ag	HNF4A DNA FP	FGF22 binding
49	30.7	-1.6	0.1	i
50	-16.7	2.8	-3.3	.
51	-4.4	11.1	-5.8	i
52	-4.6	2.6	4.2	i
53	.	-1.4	-1.5	i
54	-7.2	-6.3	67.1*	.
55	-3.6	13.6	-3.3	i
56	.	-8.2	3.9	.
57	.	-1.6	1.3	i
58	-2.8	-6.7	0.8	i
59	0.6	1.9	1.1	.
60	-4.1	7.5	-2.2	.
61	-1.9	-6.3	0.1	i

Profiles from above. Values in the order: UCH37 inh	Ecoli growth	rRNA inh HTS	rRNA inh HTS OD600	rRNA inh HTS RFP	ALR H2O2 inh	B2AR ag	HNF4A DNA FP	FGF22 binding
`C[C@]12CCC3C(CC[C@H]4C[C@H](O)CC[C@]34C)C1C[C@H](O)[C@@H]2O` (some centres undefined) is entered as -0.3	0.635	.	.	.	-2.0	14.2	20.6	i
`COc1ccccc1N1CCN(Cc2ccccc2Cl)CC1` is entered as 3.8	0.684	.	.	.	.	3.0	1.9	.
`COc1cc(/C=C2\C(=O)NC(=O)N(c3ccccc3)C2=O)c([N+](=O)[O-])cc1OC` is entered as 6.9	0.726	16.2	10.4	-1.5	.	0.8	-3.6	i

Screens: PubChem, several laboratories
